Assay outcomes (PubChem)
Rango release inh: prevents RanGTP from dissociating the Rango-importin beta complex | O95149+P62826 | Biochemical FRET Rango-importin beta, RanGTP-induced dissociation | Potency, µM (series often up to 46.1 µM), for inactives: top-dose activity change, negative = inhibition | 340,000 tested, 0.071% active | AID 540253; active means falling FRET ratio curve, often poorly fitted, with flat reads before Ran was added; inconclusive means other falling curves, or compound fluorescence or quenching; inactive means flat or rising ratio curve;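 further: potency means the concentration at half of the fitted maximal effect; % of control where 0% means no effect; nearly all actives have a fitted effect of over 45% in size; -100% = wells without RanGTP and RCC1; the record marks most hits as doubtful in a second field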
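FRET read at 45 min, room temperature: inhibitors block the CFP/YFP signal rise when RanGTP (0.6 uM Ran, 2 mM GTP, 0.2 uM RCC1) frees Rango (0.1 uM) from importin beta (0.25 uM). Pre-read after 5 min compound exposure flags interference.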
Rango complex inh: prevents formation of the Rango-importin beta complex. Rango CFP/YFP FRET sensor + importin beta, 45 min. AID 540263. 340,000 tested, 0.031% active. Q14974. Potency, µM (doses to about 92.2 µM), without a hit: at the highest dose inhibition of complex formation; active = rising FRET ratio curve, often small or poorly fitted; inconclusive = mostly compound fluorescence or quenching in the first reads; inactive = flat curves in all reads;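 further: potency means the concentration at half of the fitted maximal effect; 0% = DMSO wells and 100% = buffer wells lacking importin beta; nearly all actives have a fitted effect of over 15% in size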
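Inhibition scored from the CFP 486 nm/YFP 530 nm FRET ratio 45 min after adding 0.125 microM importin beta to 50 nM Rango biosensor preincubated 5 min with compound (room temperature, PBS with DTT, Tween-20, BSA). No-importin wells as positive control.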
GLA inh pH 4.5: inhibitors of human alpha-galactosidase A at pH 4.5 | P06280 | purified enzyme, 4-MU-alpha-Gal fluorescence, pH 4.5 | activity change, negative = inhibition, % at 105 µM | 230,000 tested, under 10 active; inconclusive = small, poorly fitted or top-dose-only inhibition, or a rising curve; inactive = flat fitted curve, though single readings scatter; no compound was filed as active;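 further: 0% = full activity with enzyme and -100% = basal without enzyme; dose as in the result columns while the protocol names 77 µM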
Target sequence (P06280 whole entry, looked up): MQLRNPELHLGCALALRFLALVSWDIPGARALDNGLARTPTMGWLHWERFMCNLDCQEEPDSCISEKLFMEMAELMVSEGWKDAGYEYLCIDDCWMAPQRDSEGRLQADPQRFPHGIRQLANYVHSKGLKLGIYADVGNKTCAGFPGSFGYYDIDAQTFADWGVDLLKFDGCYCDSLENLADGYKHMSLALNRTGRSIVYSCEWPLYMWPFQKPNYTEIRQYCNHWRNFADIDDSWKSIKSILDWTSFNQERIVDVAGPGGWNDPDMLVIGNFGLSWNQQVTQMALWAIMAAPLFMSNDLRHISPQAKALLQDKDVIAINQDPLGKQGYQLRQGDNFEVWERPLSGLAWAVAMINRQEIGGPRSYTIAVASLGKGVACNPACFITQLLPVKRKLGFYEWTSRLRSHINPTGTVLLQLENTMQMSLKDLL
miR-21 FLuc: miR-21 reporter, rising signal. HeLa miR-21 FLuc reporter, luciferase, 48 h. Potency, µM (series often up to 38.3 µM), without a hit: top-dose reporter change, positive = more light. 340,000 tested, under 10 active. AID 2288; active = well fitted rising curve with a large enough effect; inconclusive = small, poorly fitted or top-dose-only effect; inactive = no such curve, though single readings can be large or run the other way;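 further: % of control where 0% means no effect; miR-21 action dims this reporter so a rising signal means less miR-21 action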
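HeLa cells endogenously expressing miR-21, stably carrying CMV-driven firefly luciferase with a downstream miR-21 binding site, 2000 cells/well. Titrations up to approximately 40 uM, 48 hours; luciferase luminescence read.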
* = called active by the depositor; ? = inconclusive; . = no result given; & = joins results of further samples. A portion of the library (hit frequency here may not be typical).

SMILES	Rango release inh	Rango complex inh	GLA inh pH 4.5	miR-21 FLuc
O=C(CSc1nc2cc(C(F)(F)F)ccc2n1Cc1ccccc1)NC1CCS(=O)(=O)C1 (stereo not given)	-12%	-3.5%	4	-1%
CCOc1cc(/C=N/O)ccc1OCc1ccc(F)cc1	-2%	-0.9%	6	-40%
O=C(Nc1ccccc1)[C@@H]1CCCN1S(=O)(=O)c1ccc(Cl)cc1	-15%	-1.5%	.	.
Cc1c(C)n2c(SCC(=O)N3CCN(c4ccccc4)CC3)nnc2[nH]c1=O	10%	-0.1%	.	.
CCn1c(N2CCN(S(=O)(=O)c3ccc(Cl)cc3)CC2)nc2ccccc21	3%	0.8%	-2	?
CC1(C)CC(=O)C2=C(C1)OC(N)=C(C#N)C2c1ccccc1 (stereo not given)	13%	-2.4%	-1	0%
c1ccc(OCCCn2nnc(-c3ccncc3)n2)cc1	2%	0.0%	-4	-10%
CN(Cc1cccc(F)c1)C(=O)c1ccccc1Sc1ccccc1C#N	-5%	1.9%	.	-6%
COc1cccc(NC(=O)CSc2nnnn2C2CCCCC2)c1	-18%	?	.	-3%
CC(=O)Nc1ccc(S(=O)(=O)Nc2ccc(S(=O)(=O)Nc3ncccn3)cc2)cc1	0%	?	.	2%
CN(CC(=O)Nc1ccc(Cl)c(Cl)c1)C1CCCCC1	-15%	-2.2%	.	5%
O=C(CC12CCC(CC1)C2)NCc1ccc2c(c1)OCO2	-22%	-2.6%	-3	-68%
OCCC1CN(Cc2cnn(-c3ccc(F)cc3)c2)CCN1Cc1ccsc1 (stereo not given)	8%	3.6%	-1	-6%
CCOC(=O)C(CC)n1cnc2c(nnn2-c2cccc(OC)c2)c1=O (stereo not given)	0%	1.6%	.	-11%
Cc1cc(Nc2ccc(F)cc2)n2nc(C)nc2n1	7%	-0.8%	-1	-10%
COC(=O)C1=C(O)/C(=C\c2ccc(OCC(=O)Nc3ccccc3OC)cc2)N=C1C	0%	-0.5%	.	-3%
COC(=O)C1=C(C)NC2=C(C1c1ccc(O)cc1)S(=O)(=O)c1ccccc12 (stereo not given)	?	?	-5	-3%
CCN1C[C@@H]2[C@@H]3C(=O)N(Cc4ccccc4)C(=O)[C@@H]3[C@](CC)(C1=O)N2C(=O)c1ccc(F)cc1	-14%	3.0%	.	.
CCn1cc(C(=O)N2CCN(Cc3ccc4c(c3)OCO4)CC2)c(=O)c2ccc(C)nc21	-13%	-3.2%	-10	0%
CC#CC(=O)NC1CCCN(C2Cc3ccccc3C2)C1 (stereo not given)	1%	-2.1%	.	0%
COc1cccc(C(=O)Nc2ccc(S(=O)(=O)N3CCCCC3)cc2)c1OC	2%	-3.5%	.	2%
CCC(O)C(C)(C)C (stereo not given)	2%	-0.3%	.	.
COc1ccc(-n2ncc3c2CC(C)(C)CC3NC(=O)C2=CC(=O)CC(C)(C)O2)cc1 (stereo not given)	34%	-0.2%	.	-6%
COc1cc(CC(=O)N(c2ccccc2)c2nc(C)cs2)cc(OC)c1OC	7%	4.0%	-1	0%
O=C(CSc1ccccn1)N1CCNC1=O	1%	-0.2%	.	.
COCCNC(=S)NNC(=O)c1cccs1	0%	-0.1%	3	-6%
CC(OC(=O)c1cccc([N+](=O)[O-])c1)C(=O)NCc1ccc2c(c1)OCO2 (stereo not given)	26%	2.9%	.	0%
O=c1[nH]c(-c2ccc(O)cc2)nc2scc(-c3cccs3)c12	5%	-1.8%	-3	-49%
CC(C)C(NC(=O)C1(NC(=O)OCc2ccccc2)CCCC1)C(=O)O (stereo not given)	7%	-0.7%	.	.
CC(=O)Nc1ccc(S(=O)(=O)NCC(=O)NNC(=O)COc2ccccc2Cl)cc1	-20%	-6.4%	.	.

A draw from above in order of formula weight, low to high:
SMILES	Rango release inh	Rango complex inh	GLA inh pH 4.5	miR-21 FLuc
CCC(O)C(C)(C)C (stereo not given)	2%	-0.3%	.	.
O=c1[nH]c(-c2ccc(O)cc2)nc2scc(-c3cccs3)c12	5%	-1.8%	-3	-49%
CC(C)C(NC(=O)C1(NC(=O)OCc2ccccc2)CCCC1)C(=O)O (stereo not given)	7%	-0.7%	.	.
COC(=O)C1=C(C)NC2=C(C1c1ccc(O)cc1)S(=O)(=O)c1ccccc12 (stereo not given)	?	?	-5	-3%
CCn1cc(C(=O)N2CCN(Cc3ccc4c(c3)OCO4)CC2)c(=O)c2ccc(C)nc21	-13%	-3.2%	-10	0%

Further records follow:
SMILES	Rango release inh	Rango complex inh	GLA inh pH 4.5	miR-21 FLuc
Cn1c(SCC(=O)NCC2CCCO2)nc2scc(-c3ccccc3)c2c1=O (stereo not given)	18%	-0.5%	.	.
CC(C)c1ccc(/C=C/C(=O)NC(=S)NN2CCOCC2)cc1	21%	0.7%	.	-19%
CCOCCCNCC(=O)Nc1cc(S(=O)(=O)N2CCOCC2)ccc1N1CCOCC1	0%	-2.6%	.	.
Cc1ccc2c(c1)cc(CN(Cc1ccco1)C(=O)N1CCOCC1)c1nnnn12	13%	-1.1%	4	1%
Cc1oc(-c2ccccc2Cl)nc1CS(=O)(=O)CC(=O)NCCc1ccccc1	37%	-2.2%	.	-2%
NC(=O)CSC1=N/C(=C\c2ccco2)C(=O)N1c1ccc(OC(F)F)cc1	-15%	?	-3	-3%
O=C(CSc1nnnn1-c1cccc2ccccc12)N1CCOCC1	-7%	0.1%	-4	2%
COc1ccc(Cl)cc1-c1nc(SCC(=O)NC(C)C(C)C)n[nH]1 (stereo not given)	-5%	-1.6%	13	7%
CC(C)(C)NC(=O)c1ccc2c(c1)C(=O)N(C1CCCCC1)C2=O	-12%	1.0%	1	-19%
NC(=O)CC(c1ccccc1)c1ccc2c(c1)OCO2 (stereo not given)	4%	-0.4%	.	-4%
COc1nccnc1NS(=O)(=O)c1ccc(N=Cc2c(C)[nH]n(-c3ccccc3)c2=O)cc1	-10%	-0.7%	0	-2%
N#Cc1ccc(Nc2nc(-c3ccc(O)cc3O)cs2)cc1C(F)(F)F	12%	?	.	.
Oc1[nH]c2ccccc2c1N=Nc1ccc(F)cc1	?	?	-21	-67%
O=C(/C=C/c1ccco1)N1CCN(S(=O)(=O)/C=C/c2ccccc2)CC1	-17%	-4.4%	-4	0%
Cc1ccccc1S(=O)(=O)N1[C@@H](c2ccccc2)C(C(=O)O)=CC[C@H]1c1ccc(Cl)cc1	7%	0.3%	.	.
COc1ccc(C(=O)O)nc1C	-19%	-0.8%	0	2%
CCCNC(=O)NS(=O)(=O)c1cnccc1Sc1ccc(Cl)c(Cl)c1	-1%	2.8%	9	-22%
COc1ccccc1C(=O)Nc1nc(-c2ccc3c(c2)OCCO3)cs1	3%	5.0%	0	-9%
Cc1ccccc1NC(=O)c1ccccc1NC(=O)c1cccs1	-10%	-1.1%	.	0%
CCc1nnc(NC(=O)c2ccc(S(=O)(=O)N3CCOCC3)cc2)s1	1%	-1.0%	5	-1%
Clc1ccc(C=NN2CCCCCC2)cc1	0%	1.2%	.	.
O=C(Cc1coc2cc3c(cc12)CCC3)NCC1(N2CCCCC2)CCCCC1	-13%	0.2%	-9	-12%
CCc1ccc(NC(=S)Nc2ccc3[nH]c(=O)[nH]c3c2)cc1	?	0.0%	-2	-19%
COc1ccccc1C(=O)Oc1ccc2ccc(=O)oc2c1	?	?	.	-1%
COc1ccc(C(=O)N[C@H](C(=O)NCC2CCCCC2)C(C)C)cc1	0%	-4.9%	1	-21%
CCc1ccccc1NC(=S)NCC1CCN(c2ccc(OC)cc2)C1 (stereo not given)	-3%	-0.4%	0	4%
CCCN(CC(=O)Nc1ccccc1OC)C(=O)c1ccc(S(=O)(=O)Nc2ccccc2OC)cc1	6%	-4.3%	.	.
CCC1CCCCN1C(=O)CSc1nnc(-c2ccco2)o1 (stereo not given)	7%	-2.0%	-3	-41%
CN(C)c1ccc(NC(=O)Nc2cccc(Cl)c2)cc1	-5%	1.3%	-6	-38%
O=C(CN1C(=O)NC2(CCCC2)C1=O)Oc1ccc2ccc(=O)oc2c1	?	?	.	.

3 entries from above, reformatted:
Below each compound – Rango release inh, Rango complex inh, GLA inh pH 4.5, miR-21 FLuc
- CCc1ccc(NC(=S)Nc2ccc3[nH]c(=O)[nH]c3c2)cc1
  ?, 0.0%, -2, -19%
- COc1ccccc1C(=O)Oc1ccc2ccc(=O)oc2c1
  ?, ?, ., -1%
- COc1ccc(C(=O)N[C@H](C(=O)NCC2CCCCC2)C(C)C)cc1
  0%, -4.9%, 1, -21%

Carrying on.
SMILES	Rango release inh	Rango complex inh	GLA inh pH 4.5	miR-21 FLuc
CCOC(=O)c1cnn2cc(-c3[nH]ncc3[N+](=O)[O-])cnc12	-13%	1.6%	-6	-13%
COc1ccc(OC)c(NC(=O)C2CCCN2C(=O)NC2CCCCC2)c1 (stereo not given)	-4%	5.5%	.	-1%
CC1(c2ccccc2)NC(=O)N(Cc2ccc([N+](=O)[O-])cc2)C1=O (stereo not given)	1%	0.5%	5	2%
O=[N+]([O-])c1ccccc1CNCCCCCO	0%	-1.6%	.	.
CCS(=O)(=O)Nc1ccc(NC(C)=O)cc1	17%	2.7%	0	-2%
Cc1nc(C(=O)Nc2ccccc2Cl)cc2c1[nH]c1ccccc12	-9%	4.2%	.	-15%
C/C(CC(=O)Nc1ccccn1)=N\NC(=O)c1cnccn1	-12%	-2.0%	-1	-14%
CCOC(=O)Cc1nnc(Nc2ccc(C(=O)NC)cc2)c2ccccc12	19%	-2.7%	-4	0%
O=C(NCc1ccco1)c1cc2n(n1)C(C(F)(F)F)CC(c1ccc(Cl)c(Cl)c1)N2 (stereo not given)	30%	5.7%	-10	5%
CCN(CC)C(=O)CSc1nc2ccccc2c(=O)n1-c1cccc(OC)c1	-1%	?	4	0%
O=C(OCc1nc2ccsc2c(=O)[nH]1)c1ccco1	-8%	0.2%	.	.
O=C(O)c1ccc(N2C(=O)CC(N3CCN(c4cccc(C(F)(F)F)c4)CC3)C2=O)cc1 (stereo not given)	2%	-2.1%	.	-4%
COc1ccc(CC(=O)OCC(=O)Nc2ccc3c(c2)OCCO3)cc1OC	-8%	-1.0%	-6	-6%
Cc1ccccc1OCC(=O)Nc1ccc(N2CCOCC2)cc1N1CCOCC1	7%	2.3%	.	.
Cn1c(-c2ccc(Cl)cc2)cnc1NCc1cc2c(cc1[N+](=O)[O-])OCO2	0%	0.5%	-1	-9%
O=C(COC(=O)c1ccc(Cl)cc1[N+](=O)[O-])NCc1ccco1	1%	-3.6%	.	.
S=C(NCCN(C1CCCCC1)C1CCCC1)Nc1cccc(Cl)c1	-21%	1.3%	.	13%
CCOC(=O)C(C)(C)Sc1nc2c(cnn2-c2ccc(C)cc2)c(=O)[nH]1	4%	2.8%	-19	-5%
CC(=O)N1c2ccc(S(=O)(=O)NCc3ccccc3Cl)cc2CC1C (stereo not given)	?	-1.8%	.	2%&4%
COc1cc2c(cc1OC)C(C)N(C(=O)c1cc(Cl)nc(Cl)c1)CC2 (stereo not given)	-5%	-1.6%	.	22%
COc1cc(C(=S)N2CCCC2)ccc1OCc1ccccc1	0%	1.5%	.	-25%
CCOC(=O)c1c(N)n[nH]c1-c1ccccc1	1%	-1.9%	-4	-2%
Cc1ccc(/C=N/N2CCN(C3c4ccccc4-c4ccccc43)CC2)o1	-5%	3.5%	-5	5%
COc1cc(C(=O)NC2CCCc3ccccc32)cc(OC)c1C (stereo not given)	-1%	-0.6%	.	1%
Cc1cc(C)nc(N/N=C/c2ccccc2OCc2ccc(Br)cc2)n1	1%	2.9%	-7	-44%
O=[N+]([O-])/C(C(Cl)=C(Cl)Cl)=C(/Sc1ccccc1)N1CCCCC1	1%	1.6%	-3	9%
Cc1nccn1CCC(=O)O	-1%	1.0%	6	-6%
Cc1ccc2nc3c(cc2c1)c(NS(=O)(=O)c1ccccc1)nn3CC(C)C	0%	-0.9%	-1	-10%
C=CCN(CC=C)CCOc1ccc2ccccc2c1	2%	1.8%	2	-10%
Cc1[nH]c(C)c2c(=O)n(-c3ccccc3)ncc12	-19%	-3.8%	3	-53%
C=CCOC(=O)C1=C(C)Nc2[nH]c(=O)[nH]c(=O)c2C1c1ccccc1 (stereo not given)	15%	9.6%	11	-1%
Cc1cc(NC(=O)CSc2nc(-c3ccccc3)c(C#N)c(=O)[nH]2)no1	2%	-0.9%	0	1%
O=C1CS/C(=C/C(=O)c2ccccc2)N1	0%	?	-2	-1%
